MgrA-DNA mod: modulators of Staphylococcus aureus MgrA DNA binding. fluorescence polarization. inhibition, %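 (about 10 µg/mL by stock and volumes)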. hit rate 0.13% among 84,000. AID 602314;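 active = above 50% in either of two replicates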;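 also: 0% = protein plus DNA without compound and 100% = DNA alone without protein; higher means less MgrA bound to DNA so lower polarization; one replicate is shown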
S aureus helic: blocks Staphylococcus aureus DNA helicase | purified S. aureus helicase, fluorescence unwinding assay; about half of the hits fall short of the stated cut | inhibition, %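 (tested at about 80 µM)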 | hit rate 0.05% among 120,000;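 active = both duplicates at 50% or more, or one of them with a favoured structure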;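 also: 0% = mean of negative control wells and 100% = mean of positive control wells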
* = called active by the depositor; . = not tested or not shown. These rows are one share of the data; count on the stated rates, not on these rows.

Order of results – MgrA-DNA mod | S aureus helic
Cc1ccc2oc(=O)c3cc(C(=O)N(Cc4ccco4)CC4CCCO4)sc3c2c1 (stereo unspecified)
  . | 13
Cc1c(C(=O)OCC(=O)c2cc(C)n(NC(=O)c3n[nH]c(=O)c4ccccc34)c2C)oc2ccc(Cl)cc12
  . | -11
CC(C)(C)C1(C)OC(=O)C(=Cc2ccc(Br)o2)C(=O)O1 (stereo unspecified)
  20 | 15
CN(C)C(=O)c1ccc(OCC(F)(F)F)nc1
  1.9 | .
O=C(Nc1ccc2nc3n(c(=O)c2c1)CCCCC3)c1ccco1
  . | 3
O=C(c1ncoc1-c1cccs1)N1CCOCC1
  . | 0
Brc1ccc(CSc2nccn2Cc2ccccc2)cc1
  -3.6 | 10
CS(=O)(=O)N1CCN(c2ccc(NC(=O)Nc3cccc(Cl)c3)cc2)CC1
  0.2 | 12
CCOC(=O)c1c(C)n(-c2ccccc2)c2c1cc(OC(=O)c1ccccc1Cl)c1ccccc12
  -1.1 | .
Cc1occc(=O)c1OC(=O)c1ccc(Cl)cc1
  0.8 | 20
Cc1cc(C)nc(NS(=O)(=O)c2ccc(Br)cc2)n1
  0.8 | 6
COc1cccc(NCc2cn(-c3ccccc3)nc2-c2cccs2)c1
  -0.1 | 3
N#CSCC(=O)c1cccs1
  -3.0 | 1
C#CC(CC)(CC)Nc1ccsc1C(=O)O
  . | 25
CCCNC(=O)Cn1c2ccccc2c2nc(=O)cc(C)n21
  2.2 | 0
O=C(Cc1coc2cc3c(cc12)CCC3)NCCNc1ncc(C(F)(F)F)cc1Cl
  . | -7
Cc1ccccc1C=Nc1ccccc1C#N
  -1.9 | 9
CC(=O)NCCC(=O)N1CCN(S(=O)(=O)c2ccc(C(C)C)cc2)CC1
  . | 8
CC(C)(C)OC(=O)NCC1CCN(S(=O)(=O)Cc2ccccc2)CC1
  . | -11
COc1ccc(-n2nc3c(c2NC(=O)c2ccccc2)CSC3)cc1
  . | 5
NC(=O)CSc1nnc2n(-c3ccccc3)c(=O)c3c(n12)-c1ccccc1CC31CCCC1
  3.8 | 5
COC(=O)c1c(O)c2ccccc2[nH]c1=O
  -3.5 | .
COc1ccc(CNC(=O)CN(c2ccccc2OC)S(C)(=O)=O)cc1
  . | 29
COC(=O)C(C)NC(=O)c1cn(-c2ccccc2)nc1-c1ccc(F)cc1 (stereo unspecified)
  -2.8 | -13
Cc1ccc(SCCC(=O)Nc2ccc(CC#N)cc2)cc1
  1.2 | 12
CCS(=O)(=O)N1CCc2cc(C(=O)CSc3nnc(C)s3)ccc21
  . | -15
CCOC(=O)c1cc(C)n(-n2cnnc2)c1C
  0.0 | 14
O=C1C2N=NN(Cc3ccccc3)C2C(=O)N1c1ccccc1 (stereo unspecified)
  2.6 | 7
CCN(CC)S(=O)(=O)c1ccc2[nH]c(=O)cc(C(=O)O)c2c1
  . | 2
O=c1c2ccccc2c(=O)n(Cc2ccccc2)n1Cc1ccccc1
  . | 6
CC(C)(C)c1nnc2n(c1=O)N=C(c1ccc(F)cc1)CS2
  2.8 | -13
CC(NC(=O)c1ccccc1C(=O)NC(C)c1ccc2c(c1)OCCO2)c1ccc2c(c1)OCCO2 (stereo unspecified)
  -0.4 | .
CCCn1c2ccccc2c2cn[nH]c(=O)c21
  . | -11
Cn1cc(S(=O)(=O)N2CCc3ccccc32)cc1C(=O)NC1CCCCCCC1
  . | -15
NNC(=O)CCc1ccccc1
  -2.0 | 6
O=S(=O)(Nc1n[nH]c2ccccc12)c1ccc(Cl)c(Cl)c1
  -1.9 | .
COc1ccc(C2CC(O)=C(C#N)c3nc4ccccc4n32)cc1 (stereo unspecified)
  . | -8
Cc1ccc(-c2csc(-c3cccnc3)n2)cc1C
  -7.6 | 1
CCCCN(C)C(=O)C1c2ccccc2C(=O)N2CCc3ccccc3C12 (stereo unspecified)
  . | -14
COC(=O)[C@@H]1CC(O)CN1C(=O)C12CC3CC(CC(C3)C1)C2 (stereo partly specified)
  . | -12
NC(=O)CSc1oc(-c2ccccc2)nc1S(=O)(=O)c1ccccc1
  -0.1 | 5
C=CCn1c(N)nc2ccccc21
  . | 27
CN(C(=O)CSC(=S)N1CCCC1)c1ccccc1
  -0.2 | -2
COC(=O)c1cc2nc(-c3ccccc3)cc(C)n2n1
  . | 12
Fc1ccc(-c2cn3c(n2)-c2ccccc2C3)cc1
  . | -18
CCn1c2ccccc2c2cc(/C=C3\Cc4ccccc4C3=O)ccc21
  -1.2 | -108
CCOC(=O)c1cnn2c(N)c(C#N)cnc12
  4.5 | -1
N#CC1=C(SCC(=O)OCc2ccccc2)NC(=O)CC1c1ccccc1[N+](=O)[O-] (stereo unspecified)
  3.0 | .
CCCCOc1ccc(C(=O)Nc2ccc(O)c(-c3nc4ccccc4s3)c2)cc1
  -1.1 | .
CC(=O)C(N=Nc1ccc2c(c1)COCO2)C(C)=O
  -0.8 | .
C=CCn1c(SC(C)C(=O)NC(N)=O)nc2ccccc2c1=O (stereo unspecified)
  . | 15
COc1ccc(NS(=O)(=O)c2ccc(Oc3c(C#N)cccc3C#N)cc2)cc1
  -0.8 | .
CC1(C)CC(=O)c2c(-c3cccnc3)n[nH]c2C1
  -2.3 | 10
Cc1ccccc1C1NS(=O)(=O)N=C1N (stereo unspecified)
  0.5 | -12
CCCOC(=O)c1ccc(NCC(=O)Nc2ccc(C)cc2)cc1
  0.0 | 16
Clc1ccc2nc(N3CCNCC3)nc(-c3ccccc3)c2c1
  . | -17
CCCCN1C(=O)C2Cc3c([nH]c4ccccc34)CN2C1=S (stereo unspecified)
  2.6 | -87
Cc1c(/C=N\NC(=O)OC(C)(C)C)c2ccccc2n1C
  . | -29
N#Cc1ccsc1NC(=O)c1ccc(S(=O)(=O)N2CCOCC2)cc1
  . | 10
CCn1cc(S(=O)(=O)c2ccccc2)c(=O)c2cc(F)ccc21
  . | 9

Next records
Order of results – MgrA-DNA mod | S aureus helic
O=S(=O)(NN=C1CCCCC1)c1ccccc1
  1.9 | -3
CCCc1nn2c(=O)cc(COc3cccc(NC(=O)c4ccccc4)c3)nc2s1
  . | 11
O=C(NN1C(=O)c2ccccc2C1=O)C1CC2CCC1C2 (stereo unspecified)
  1.4 | 1
O=C1CC(SCCO)C(=O)N1c1ccccc1 (stereo unspecified)
  0.8 | 9
COc1cc(/C=C2/SC(=O)N(c3ccccc3)C2=O)cc(Br)c1O
  -0.9 | .
CC(C)N(CC(N)=O)C(=O)c1ccccc1Nc1ccc(F)cc1
  . | -4
CC(=O)Nc1ccc(Cc2ccncc2)cc1
  0.9 | -3
CCC(c1nnc(SCC(=O)NCC(C)C)o1)N(C)C (stereo unspecified)
  . | -6
COc1cc(CN(C)Cc2cc3c(cc2O)CCC3)ccc1OC(F)F
  . | -2
COc1cccc(OC)c1CCOC(=O)c1c(F)cccc1F
  -1.4 | .
COc1ccc(/C(C#N)=C/c2cccs2)cc1
  -0.8 | .
COC(=O)CCc1c(C(=O)OCc2ccccc2)[nH]c(C)c1C(=O)OC(C)(C)C
  -1.5 | .
CC1(C)CC(=O)C2=C(C1)Nc1ccccc1N(C(=O)Cc1ccccc1)C2c1cccc([N+](=O)[O-])c1 (stereo unspecified)
  2.8 | .
Cc1nn(C)c(Nc2ccc(Br)cc2)c1Br
  1.2 | -13
CCCCNc1ccccc1C(=O)O
  . | 0

Molecules above that have four or more nitrogen atoms (12):
Order of results – MgrA-DNA mod | S aureus helic
Cc1c(C(=O)OCC(=O)c2cc(C)n(NC(=O)c3n[nH]c(=O)c4ccccc34)c2C)oc2ccc(Cl)cc12
  . | -11
CS(=O)(=O)N1CCN(c2ccc(NC(=O)Nc3cccc(Cl)c3)cc2)CC1
  0.2 | 12
CCCNC(=O)Cn1c2ccccc2c2nc(=O)cc(C)n21
  2.2 | 0
NC(=O)CSc1nnc2n(-c3ccccc3)c(=O)c3c(n12)-c1ccccc1CC31CCCC1
  3.8 | 5
CCOC(=O)c1cc(C)n(-n2cnnc2)c1C
  0.0 | 14
O=C1C2N=NN(Cc3ccccc3)C2C(=O)N1c1ccccc1 (stereo unspecified)
  2.6 | 7
CC(C)(C)c1nnc2n(c1=O)N=C(c1ccc(F)cc1)CS2
  2.8 | -13
CCOC(=O)c1cnn2c(N)c(C#N)cnc12
  4.5 | -1
C=CCn1c(SC(C)C(=O)NC(N)=O)nc2ccccc2c1=O (stereo unspecified)
  . | 15
Clc1ccc2nc(N3CCNCC3)nc(-c3ccccc3)c2c1
  . | -17
CCCc1nn2c(=O)cc(COc3cccc(NC(=O)c4ccccc4)c3)nc2s1
  . | 11
CCC(c1nnc(SCC(=O)NCC(C)C)o1)N(C)C (stereo unspecified)
  . | -6

(continued)
Order of results – MgrA-DNA mod | S aureus helic
CC(C)C(=O)Nc1ccc(C(=O)Oc2ccccc2)c(O)c1
  . | -1
N#Cc1c(CN2CCOCC2)cn2ccccc12
  . | 11
Clc1ccc(C2=NN3C(C2)c2ccccc2OC3c2ccc(OCc3ccccc3)cc2)cc1 (stereo unspecified)
  -1.3 | .
CN1CC=C2C(C#N)=C(N)C(C#N)(C#N)C(c3ccccc3)C2C1 (stereo unspecified)
  . | -19
CN(C(=O)c1cc(-c2ccccc2)n[nH]1)C1CCCCC1
  -0.4 | 1
COc1ccc(CNc2ncnc3ccccc23)cc1
  . | -15
CC(C)(Oc1ccc(Cl)cc1)C(=O)OCC(=O)N1CCCc2ccccc21
  -0.6 | 9
CCCCOc1ccc2nc3c(nc2c1)C(=O)c1ccccc1C3=O
  . | 26
CCC1(C)Nc2ccccc2-c2nc3ccccc3n21 (stereo unspecified)
  1.2 | 7
O=C(NCC1CCCO1)C1CC(c2ccccc2O)=NO1 (stereo unspecified)
  -10 | 4
Cc1ccc2[nH]c(=O)c3cc(C(=O)NCCN(C)Cc4ccccc4)sc3c2c1
  0.0 | 9
Cc1oc(-c2ccc(Cl)cc2)cc1-c1nn2c(-c3ccco3)nnc2s1
  3.9 | 11
O=C(Nc1cccc(F)c1C(=O)NCc1cccs1)c1cccs1
  -0.3 | .
CCOC(=O)c1cnn(CCOC(=O)CC)c1NC(=O)CC
  . | 9
COC(=O)C1=C(N)OC2=C(C(=O)CC(C)(C)C2)C1c1ccccc1 (stereo unspecified)
  . | 13

2 compounds picked at random from the list so far, as already listed:
Order of results – MgrA-DNA mod | S aureus helic
COC(=O)CCc1c(C(=O)OCc2ccccc2)[nH]c(C)c1C(=O)OC(C)(C)C
  -1.5 | .
O=C(c1ncoc1-c1cccs1)N1CCOCC1
  . | 0

Remaining list, next part
| SMILES | MgrA-DNA mod | S aureus helic |
| --- | --- | --- |
| CC1CCCN(c2ccc3nncn3n2)C1 (stereo unspecified) | 5.7 | . |
| CC(C)C(C)(C#N)NC(=O)CSc1nc2ccccc2c(=O)n1C1CCCC1 (stereo unspecified) | . | -12 |
| O=S(=O)(NCc1cc(F)cc2c1OCOC2)c1ccc(-c2ccccn2)s1 | -1.3 | . |
| O=C(C1CCN(S(=O)(=O)c2cccs2)CC1)N1CCc2ccccc2C1 | . | -20 |
| Cc1nc2c(c(C)c1CCC(=O)NCC1CCN(CC(C)C)C1)c(=O)n(C)c(=O)n2C (stereo unspecified) | . | -15 |
| COc1ccc(CCNC(=O)c2cc(C)no2)cc1OC | -1.0 | 8 |
| O=c1c2ccccc2nnn1CO | . | -9 |
| CC1=NNC(=O)C1Oc1ccc(Cl)cc1Cl (stereo unspecified) | 0.9 | . |
| O=S(=O)(c1cc(Cl)cc(Cl)c1)N1CC=C(c2ccccc2)CC1 | 0.2 | . |
| O=C(CN1C(=O)NC(c2ccccc2)(c2ccccc2)C1=O)c1ccc[nH]1 | . | -9 |
| COCCNC(=O)c1cc(-c2cccnc2)nc2ccc(S(=O)(=O)N3CCCCCC3)cc12 | . | 2 |
| N#CSc1ccc(N)c(Br)c1 | . | 8 |
| O=c1/c(=C\c2ccc(F)cc2)sc2n1CCN=2 | 6.5 | 3 |
| O=S(=O)(c1ccccc1)c1ccc(N2CCCCC2)cc1 | 1.5 | -7 |
| Nc1nc2ccc(C(=O)O)cc2s1 | -2.0 | 14 |
| O=C1NCCN1CCN1C(=O)c2ccccc2NC1c1ccccc1 (stereo unspecified) | 1.1 | . |
| O=C1CC(SCc2nc3ccccc3[nH]2)C(=O)N1c1ccc(F)cc1 (stereo unspecified) | 2.6 | 23 |
| O=C(c1cccs1)N1CCN(C(=O)c2cccs2)CC1 | 0.1 | 4 |
| O=C(CCN1C(=O)c2ccccc2C1=O)NCc1ccccc1 | . | -3 |
| COc1ccc(-c2cc(N)n(CCC#N)n2)c(OC)c1 | . | 13 |
| CC1=C(C(=O)OCc2ccc3c(c2)OCO3)C(c2ccc([N+](=O)[O-])cc2)NC(=O)N1 (stereo unspecified) | 0.1 | . |
| O=C(NC1CCCCCCC1)c1cc(-c2ccc(Cl)cc2)n[nH]1 | -1.5 | 2 |
| COc1ccc2cc(CCNS(=O)(=O)c3ccccc3)c(=O)[nH]c2c1 | . | -3 |
| O=S(=O)(NC1Cc2ccccc2C1N1CCCC(C(F)(F)F)C1)c1ccccc1 (stereo unspecified) | . | -9 |
| Cc1nnsc1C(=O)NC1CCCCC1 | 0.0 | . |
| CC1Cn2cc(C(=O)N3CCN(Cc4ccc5c(c4)OCO5)CC3)c(=O)c3c(Cl)ccc(c32)O1 (stereo unspecified) | . | 4 |
| O=C(NC1CCCCC1)OCn1c(=O)oc2cc(Cl)ccc21 | . | -11 |
| N#CC(C#N)=C(/C=C/c1cccs1)C1CC1 | . | 0 |
| O=C(Nc1ccc(S(=O)(=O)Nc2cnc3ccccc3n2)cc1)c1ccc2c(c1)OCO2 | . | 1 |
| O=C(c1ccccc1)N1CCC(C2CCNCC2)CC1 | 3.3 | 6 |
| C=CCN1C(=O)S/C(=C\c2ccc(CC)s2)C1=O | 1.3 | 18 |
| O=C(Cn1c2[n+](c3ccccc31)CC(O)CS2)N1CCCCC1 (stereo unspecified) | -2.6 | 4 |
| CCN(CC)c1ccc2cc(S(=O)(=O)c3ccc(Cl)cc3)c(=O)oc2c1 | 15 | -189 |
